CDC25B CDK2 inh: primary biochemical HTRF screen for blockers of M-phase inducer phosphatase 2 binding to CDK2/cyclin A. P30305+P24941. HTRF CDC25B-CDK2/CyclinA binding, anti-His/anti-Flag; hits give high values. z-score (no concentration beside the values). hit rate 0.72% among 94,000. AID 1259370, 2018;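 note: score is relative to mean and SD of negative controls; strong numbers were not always called active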
HIV TAR-Tat: TAR RNA-Tat peptide displacers, HIV-1, primary screen, biochemical, FRET, FAM/TAMRA-labeled Tat; z-score (no concentration beside the values); HIV-1 TAR RNA, Tat peptide displacement FRET; hits give high values; hit rate 0.6% among 100,000;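 note: score is relative to mean and SD of negative controls; some compounds called inactive have numbers as strong as hits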
* = called active by the depositor; . = not tested or not shown.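 Rule for the calls: active = z-score from 3 up in half or more of its runs; inactive = the rest.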

Every second line gives: CDC25B CDK2 inh | HIV TAR-Tat
Cc1nn(CC(=O)N2CCN(c3ccccc3)CC2)c(=O)c2cc3sccc3n12
  -0.91 | 1.16
Cc1occc1-c1nnc(SCC(=O)c2ccc(Cl)cc2)o1
  0.95 | -2.33
O=C1CCCc2cc(S(=O)(=O)N3CCC(c4ccccc4)C3)ccc2N1 (configuration not stated)
  . | 0.06
Cc1noc2ncnc(N3CCCC(C(=O)Nc4ccc5c(c4)OCCO5)C3)c12 (configuration not stated)
  . | -0.31
CCn1c(SC(C)C)nc2sc3c(c2c1=O)CCCC3
  -2.57 | 2.73
O=C(c1ccc(S(=O)(=O)N2CCOCC2)cc1)N(c1ccc(F)cc1)C1C=CS(=O)(=O)C1 (configuration not stated)
  -0.67 | .
Cc1nc(-n2nc(C)c(Cl)c2C)sc1C(=O)Nc1ccc(F)cc1
  -1.4 | 0.36
CCS(=O)(=O)N1CCC2(CC1)OC(=O)C(C)=C2C(=O)N1CCCCC1
  . | 0.38
CC(CS(=O)(=O)c1ccc2c(c1)NC(=O)CS2)C(=O)N1CCN(c2ccc(Cl)cc2)CC1 (configuration not stated)
  . | -1.77
CCCCOC(=O)c1c(N)n(-c2ccc(OC)cc2)c2nc3ccccc3nc12
  11* | 0.97
COc1ccc(-c2noc(NCCCOC(C)C)n2)cc1OC
  . | 1.07
COc1ccc2nc(-n3nc(C)c4c3NC(=O)CC4c3ccccn3)sc2c1 (configuration not stated)
  . | 0.63
CN(C)CCNC(=O)C(=O)Nc1ccc2nc3n(c(=O)c2c1)CCCCC3
  -1.03 | .
Nc1c(S(=O)(=O)Cc2ccc(Cl)cc2)sc2nc3c(cc12)CCCC3
  -1.21 | -1.17
Cc1cc(S(=O)(=O)[C@H]2CS(=O)(=O)C[C@@H]2N2CCN(C/C=C/c3ccccc3)CC2)ccc1F
  -1.14 | 0.73
CCSc1nc2n(n1)C(c1cccs1)C1=C(CCCC1=O)N2 (configuration not stated)
  -1.04 | -0.59
CCC1=NN(S(=O)(=O)c2ccc(C)cc2)C(O)(C(F)(F)F)C1 (configuration not stated)
  1.03 | .
COc1cccc(CN=C2NS(=O)(=O)C(c3ccccc3)=C2C)c1OC
  -1.06 | -1.3
CCCNC(=O)CN1c2ccc(Br)cc2-c2ccccc2S1(=O)=O
  -1.93 | 1.76
O=C(NCCC1=CCCCC1)c1ccc2c(c1)nc1n2CCCCC1
  . | 1.21
c1ccc2c(c1)COC(CN1CCN(CC3OCc4ccccc4CO3)CC1)OC2
  -2.36 | .
Nc1ccc(Oc2cc(C(F)(F)F)ccc2Cl)cc1F
  -1.65 | .
CC1CN(Cc2c(O)ccc3c(=O)c(-c4ccccc4)coc23)CC(C)O1 (configuration not stated)
  -0.55 | -0.21
COc1ccc(N2C(=O)C3C(c4ccccc4C)OC4(C(=O)c5ccccc5C4=O)C3C2=O)cc1OC (configuration not stated)
  0.46 | .
Cc1nc(N2CCCC2)c2c(C(=O)O)c(C)oc2n1
  -1.41 | -0.63
CCn1c(CN2CCCC2)nc2cc(NC(=O)CC(C)C)ccc21
  0.86 | 0.17
N#Cc1nc(/C=C/c2ccc(Cl)cc2)oc1N1CCNCC1
  0.07 | 2.03
CC1=C(C(=O)N2CCCCC2)C2(CCC(C)CC2)OC1=O (configuration not stated)
  0.57 | 1.88
CCOC(=O)c1cccc(-n2nnc3c(sc4nc(C)c(C)cc43)c2=O)c1
  -2.46 | -0.31
Cn1c(=O)c2cc(C(=O)N3CCCC3)sc2c2ccccc21
  -1.56 | -0.36

Next part, starting with the last 2 of the part before.
Every second line gives: CDC25B CDK2 inh | HIV TAR-Tat
CCOC(=O)c1cccc(-n2nnc3c(sc4nc(C)c(C)cc43)c2=O)c1
  -2.46 | -0.31
Cn1c(=O)c2cc(C(=O)N3CCCC3)sc2c2ccccc21
  -1.56 | -0.36
O=C(NC(=O)c1sc2ccccc2c1Cl)c1ccccc1O
  -0.48 | .
O=C(NCc1ccco1)c1ccc(CNc2c(NC3CCCC3)c(=O)c2=O)cc1
  1.03 | 0.77
CCCc1cc(=O)n2nc(N3CCC(C(=O)N4CCCC4)CC3)sc2n1
  -1.96 | 2.38
COC(=O)c1c(-c2c(Cl)cccc2Cl)noc1C(=O)NN
  0.13 | .
CCOc1ccccc1-c1nc(CSc2nc3ncccc3o2)c(C)o1
  . | 1.24
COc1ccc(CCN2CNc3c(c(=O)n(C)c(=O)n3C)C2)cc1OC
  -0.43 | 1.22
Cn1c(=O)c2c(nc(NCCCO)n2Cc2ccc(Cl)cc2)n(C)c1=O
  0.14 | 1.72
CC(C)C(NS(=O)(=O)c1cccs1)C(=O)NCCN(C)C1CCCCC1 (configuration not stated)
  . | 0.66
COC(=O)CC1Oc2ccc(Cl)cc2-n2cc(-c3ccccc3)nc21 (configuration not stated)
  -0.96 | 0.49
O=C(Cn1c(=O)oc2ccccc21)Nc1cccnc1
  . | -0.34
COc1ccc(-c2nc3c(c(=O)[nH]2)Cc2cc(Br)ccc2O3)cc1
  -1.81 | -3.17
O=[N+]([O-])c1cc(-c2nc(-c3cccc(C(F)(F)F)c3)no2)cs1
  -1.84 | .
CC1=C(C(=O)N(CC2CC=CCC2)CC2CCCO2)C2(CCCCC2)OC1=O (configuration not stated)
  0.39 | .
O=C1CCCc2cc(S(=O)(=O)NCc3cccnc3)ccc2N1
  . | 2.46
CCc1cccc(C)c1NC1=NS(=O)(=O)c2ccccc21
  -1 | .
CCCCC1CCC(C(=O)Oc2cccc(-n3cnnn3)c2)CC1 (configuration not stated)
  2.06 | 1.12
O=C(NC1CCCCC1)N1c2ccccc2C=Cc2ccccc21
  -0.99 | 0.71
COC(=O)c1cc2occc2n1Cc1c(F)cccc1Cl
  -1.71 | -0.73
c1ccc(-c2c(-c3ccccc3)n(Cc3ccco3)c3ncnc(NCCCn4ccnc4)c23)cc1
  1.05 | 0.04
Cc1ccccc1-c1c(C(F)(F)F)oc2c(C)c(O)ccc2c1=O
  -1.4 | 0.33
Cn1c(=O)n(Cc2ccccc2)c(=O)c2c3c(sc21)COC(C)(C)C3
  0.43 | 0.5
CCCSc1ncc(CO)n1Cc1ccc(OC)cc1
  . | 1.72
Cc1cc(C)c2c(=O)cc(C(=O)Nc3nc4ccc(C)cc4s3)oc2c1
  -1.59 | 1.7
CC1CCN(C(=O)CC(=O)Nc2ccc3nc4n(c(=O)c3c2)CCCCC4)CC1
  -0.53 | .
CC(C)n1cc(NC(=O)C2=CC(c3ccco3)=NS(=O)(=O)N2C)cn1
  -2.09 | 1.2
CC(=O)Nc1ccc2nc(NC(=O)CS(=O)(=O)c3ccc(Cl)cc3)sc2c1
  . | 1.56
Cc1cccc(N2CCN(c3ncnc4onc(C)c34)CC2C)c1 (configuration not stated)
  . | -0.17
C=CCn1c(=O)c2c(nc3n2CCN3c2ccc(F)cc2)n(C)c1=O
  . | -0.64
CS(=O)(=O)c1ccc(-c2cccc(NS(=O)(=O)c3ccc4c(c3)OCCO4)c2)nn1
  . | 0.38
CC(=O)c1sc(-c2ccc(Cl)cc2)nc1C
  0.55 | .
CCCNC(=O)Cn1ncn2c(cc3sc(CC)cc32)c1=O
  -5.19 | .
COc1ccc(S(=O)c2ccccc2C(=O)O)c(C(=O)O)c1 (configuration not stated)
  -0.88 | .
Cc1ccc(NC(=O)N2CCn3cccc3C2C(C)C)cc1C (configuration not stated)
  . | 0.14
COc1cc(Nc2ncnc3sc(C)c(S(=O)(=O)N4CCC(C)CC4)c23)cc(OC)c1OC
  0.64 | .
CCCc1nc2nc(C)c(NS(=O)(=O)CC)c(=O)n2[nH]1
  -0.55 | 0.89
O=C1CSc2ccccc2N1Cc1ccc(Cl)cc1
  -0.84 | .
O=C(CCn1c(=S)[nH]c2ccccc2c1=O)N1CCCC1
  0.79 | .
COCCCNC(=O)N1Cc2c(sc3c2CCCC3)-n2cccc2C1c1cc(F)cc(F)c1 (configuration not stated)
  . | 0.11
COCCN1C(=O)C(=O)/C(=C(/O)c2ccccc2)C1c1ccccc1F (configuration not stated)
  -3.21 | 0.7
Cc1ccc(CNS(=O)(=O)c2cn(C)cn2)cc1
  . | 0.81
Cc1cc(C)c2c(=O)[nH]c(SCC(=O)N3CCCCC3)nc2n1
  0.23 | 0.42
CS(=O)(=O)NCc1ccccc1
  0.19 | 0.15
COc1ccc(N(Cc2cc(CN3CCOCC3)cs2)S(=O)(=O)c2c(C)n[nH]c2C)cc1
  . | -1
CCCc1nn2c(=O)cc(CSc3nc4ccccc4s3)nc2s1
  -0.85 | -0.17
CCOC(=O)C1CCN(S(=O)(=O)c2ccc3c(c2)C(C)(C)C(=O)N3C)CC1
  . | 1.07

Exported field by field: two of the compounds above
> O=C(c1ccc(S(=O)(=O)N2CCOCC2)cc1)N(c1ccc(F)cc1)C1C=CS(=O)(=O)C1 (configuration not stated)
  CDC25B CDK2 inh: -0.67
  HIV TAR-Tat: .
> CCCNC(=O)CN1c2ccc(Br)cc2-c2ccccc2S1(=O)=O
  CDC25B CDK2 inh: -1.93
  HIV TAR-Tat: 1.76

Continued.
structure | CDC25B CDK2 inh | HIV TAR-Tat
Cn1c(NCCN)nc2c1c(=O)n(Cc1ccccc1)c(=O)n2C | -2.68 | -2.56
CCC1CCCCN1Cc1ccc(CN2CNc3c(c(=O)n(C)c(=O)n3C)C2)o1 (configuration not stated) | -0.58 | 1.47
Cc1ccc(S(=O)(=O)[C@H]2CS(=O)(=O)C[C@@H]2NCCc2ccc(Cl)cc2)cc1 | 0.56 | 1.03
Cc1oc2ccccc2c1CCOC(=O)c1ccc(Cl)cc1 | -1.77 | .
O=S(=O)(c1cccc2nsnc12)N1CC(OCc2ccccc2Cl)C1 | . | -0.36
CCCC1=NN(C(=O)c2ccc(C(C)(C)C)cc2)C(O)(C(F)(F)F)C1 (configuration not stated) | -2.16 | .
CCCCN1CN=C(Nc2nc(C)c3cc(OCC)ccc3n2)NC1 | -0.82 | -0.25
Cc1cc(C)c2c(=O)cc(C(=O)N(Cc3ccc(Cl)cc3)Cc3ccco3)oc2c1 | -1.45 | 0.48
O=C(c1cc(-c2cccs2)on1)N1CCCC1c1ccc(F)cc1 (configuration not stated) | -1.08 | -0.79
Cc1ccc(C2C(C#N)=C3N=C(N)c4ccccc4N3C3=C2C(=O)CCC3)cc1 (configuration not stated) | -0.63 | -3.46

Record cards, as listed above:
`COC(=O)CC1Oc2ccc(Cl)cc2-n2cc(-c3ccccc3)nc21` (configuration not stated) in the list: CDC25B CDK2 inh = -0.96; HIV TAR-Tat = 0.49
`c1ccc(-c2c(-c3ccccc3)n(Cc3ccco3)c3ncnc(NCCCn4ccnc4)c23)cc1` in the list: CDC25B CDK2 inh = 1.05; HIV TAR-Tat = 0.04
`O=C(c1ccc(S(=O)(=O)N2CCOCC2)cc1)N(c1ccc(F)cc1)C1C=CS(=O)(=O)C1` (configuration not stated) in the list: CDC25B CDK2 inh = -0.67; HIV TAR-Tat = .

(list continues)
structure | CDC25B CDK2 inh | HIV TAR-Tat
O=C(CCCn1cnc([N+](=O)[O-])n1)Nc1cccc(O)c1 | -0.34 | 2.17
CC1=C(c2cccc(Br)c2)S(=O)(=O)N=C1N(C)Cc1ccccc1 | -1.96 | 1.71
CCCCSc1nc2sc3c(c2c(=O)[nH]1)CC(C)(C)OC3 | 0.05 | 1.07
N[C@H](C(=O)O)c1cc(O)cc(O)c1 | -0.71 | .
COc1ccc(C2C(C(=O)c3ccco3)=C(O)C(=O)N2c2nnc(C)s2)cc1 (configuration not stated) | -1.97 | .
Cc1csc(NC(=O)C2CCN(c3ncnc4c3nc3n4CCCCC3)CC2)n1 | . | -2.49
CCOC(=O)c1c(C)[nH]c(NC(=O)Nc2ccc(F)cc2)c1C | -1.76 | 1.35
CC(=O)O[C@H]1[C@H](OC(C)=O)[C@H](OC(C)=O)CO[C@@H]1c1nc2ccccc2s1 | -1.67 | .
C=CCOC(=O)C1=C(C)NC2=C(C(=O)CC(C)(C)C2)C1c1ccccc1OCCCC (configuration not stated) | 0.77 | 2.09
COc1ccc(NC(=O)C2=Cc3sc(C)c(C)c3CS2)cc1 | . | 1.09
CN(C)c1ccc(C2OC(=O)C(C)(C)C(=O)C2(C)C)cc1 (configuration not stated) | -0.04 | .
O=C(/C=C/c1ccccc1)c1ccc(O[C@@H]2O[C@H](CO)[C@@H](O)[C@H](O)[C@H]2O)cc1O | . | 1.56
Cc1ccc2c(=O)cc(C(=O)Nc3nc4ccc(S(C)(=O)=O)cc4s3)oc2c1 | -1.29 | 0.5
COc1ccc(-c2nnc(SCc3ccc(Br)cc3)o2)cc1 | -1.42 | -0.41
COCCNS(=O)(=O)c1ccc2c(c1)NC(=O)C(C)CS2 (configuration not stated) | . | -2.46
O=C(NCc1ccco1)C1CCN(C(=O)c2sccc2-n2cccc2)CC1 | -1.1 | .
O=C(CCc1nnc2ccc(N3CCCCC3)nn12)Nc1ccc(F)cc1F | . | -0.57
O=C1CCCN1c1ccc(S(=O)(=O)N2CCc3ccccc32)cc1 | . | 0.73
COc1ccc(OC)c(NC(=O)c2csc3c2CCCC3)c1 | -2.6 | 1.62
CSc1ccc(C2C(C(=O)OCCOc3ccccc3)=C(C)NC3=C2C(=O)CC(C)(C)C3)cc1 (configuration not stated) | -2.36 | -1.07
CCC1Sc2ccc(S(=O)(=O)CCC(=O)N3CCc4ccccc43)cc2NC1=O (configuration not stated) | . | 0.97
CCN1CCN(CCNC(=O)c2cnc3sc(N4CCC(C)CC4)nn3c2=O)CC1 | . | 0.9
O=c1c2ccccc2c2ccccc2c(=O)n1-c1ccc(F)cc1F | -1.26 | .
CCC12CN3CC(C)(CN(C1)C3c1ccccc1)C2=O (configuration not stated) | -1.11 | -0.03
CCc1ccc(NS(=O)(=O)c2ccc(-c3cnc(C4CC4)o3)cc2)cc1 | . | 1.26
Cc1ccc(CNCCNCC(C)O)s1 (configuration not stated) | -1.2 | -0.2
Cn1cccc1Cc1nnc(SCC(=O)NCC2CCCO2)n1-c1ccc(F)cc1 (configuration not stated) | -2.6 | 2.77

Source: PubChem (Center for Chemical Genomics, University of Michigan)
